High-throughput results as filed in PubChem BioAssay.
T cruzi inh: T. cruzi replication inhibition | T. cruzi beta-gal in NIH3T3, luminescence, 90 h | inhibition, % (test concentration not listed) | hit rate 1.4% among 300,000;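 active means mean inhibition across valid replicates above about 55%, limit read from the data; inconclusive means mean below that limit but half or more replicates reach it; inactive means mean below it, under half of replicates reach it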;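 further: signal also drops with host cell toxicity which is not excluded here; 0% = plate median of DMSO wells and 100% = zero luminescence signal; higher percent means less beta-gal luminescence so fewer parasites; stock transfer was 50 nL into about 50 µL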
Beta cell apopt: beta cell apoptosis inhibition; hit rate 0.8% among 300,000; INS-1E cytokine-induced death, ATP luminescence, 48 h; percent of positive-control rescue, neutral wells zero; protection from apoptosis, % (concentration not given with the values);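 active means all replicates at 75% or more, or half of them and the mean; inconclusive means half reach 75% but not the mean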;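 further: 0% = cytokine-treated negative control wells and 100% = positive control rescue; higher means more ATP so stronger rescue from cytokine killing; wells of about 40 µL received 100 nL stock; the first replicate is given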
Ecoli rRNA inh: selective bacterial rRNA inhibition in E. coli | GFP signal change (wild-type ribosome), % (concentration not given with the values) | AID 720706 | hit rate 1.6% among 350,000 | E. coli WT GFP vs humanized-ribosome RFP mutants, fluorescence, 24 h; active compounds read low; DMSO median 0, no signal -100;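 active means significant combined selectivity score with lowered wild-type GFP, culture density cut under 30%, mutant RFP and density less affected; inactive means any of these conditions unmet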; further: one replicate is shown; some compounds called inactive have numbers as strong as hits
E coli growth: E. coli growth inhibition; Escherichia coli growth, OD600, 23 h; active compounds read low; OD600 absorbance (concentration not given with the values); hit rate 0.21% among 330,000;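 active means OD600 absorbance below the run mean of sample wells minus 3.6 SD, in any replicate, cut at about 0.56 in these data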;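 further: stock transfer was 300 nL into about 60 µL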
UCH37 DUB inh: blocks the human deubiquitinase UCH37 | Q9Y5K5 | inhibition, % (concentration not given with the values) | hit rate 0.33% among 330,000 | purified proteasome/UCH37, Ub-AMC cleavage fluorescence | AID 588478;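 active means mean of two replicates above 20%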;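 further: 0% = compound-free wells with enzyme and 100% = wells lacking proteasome; stock transfer was 100 nL into about 20 µL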
Target sequence (Q9Y5K5 whole entry, looked up): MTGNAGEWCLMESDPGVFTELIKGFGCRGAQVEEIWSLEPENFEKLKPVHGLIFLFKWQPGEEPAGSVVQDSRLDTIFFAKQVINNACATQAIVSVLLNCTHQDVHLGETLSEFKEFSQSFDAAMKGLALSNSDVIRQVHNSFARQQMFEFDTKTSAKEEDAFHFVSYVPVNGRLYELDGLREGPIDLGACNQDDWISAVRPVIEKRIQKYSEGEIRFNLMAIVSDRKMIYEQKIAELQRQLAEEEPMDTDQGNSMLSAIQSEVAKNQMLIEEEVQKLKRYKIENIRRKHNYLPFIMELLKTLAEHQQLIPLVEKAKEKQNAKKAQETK
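Material: Human UCH37 enzyme supplied as purified proteasome complex | Schedule: 30 min preincubation with enzyme, 25 min cleavage at room temperature | Detection: AMC fluorescence 355/460 nm | Measure: % inhibition of Ub-AMC cleavage fluorescence | Controls: Wells without proteasome as full block, compound-free enzyme plus substrate as uninhibited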
FGF22 binding: binders of recombinant human FGF22 by thermal shift; SYPRO orange fluorescence; percent of sucrose octasulfate shift, DMSO zero; calls only at 9.99 µM; hit rate 1.5% among 340,000; AID 651658;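 active means melting point raised past a set limit in the mean and every replicate; inconclusive means no clear call; three in four hits are not shown here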
A1 inh: inhibitors of the anti-apoptotic protein A1, read as caspase activation. MEF A1-2A-BIM cells, Caspase-Glo 3/7 luminescence, 3 h; percent of clofoctol response, vehicle zero. caspase activation, % (test concentration not listed). hit rate 0.066% among 330,000. AID 2462;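 active means over half of replicate activation scores above 10%, or exactly half above 10 with the replicate mean above 10; inconclusive means replicate mean below 10 yet half the replicates above 10; inactive means over half of replicates below 10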;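 further: wells of about 30 µL received 50 nL stock; many hits fall short of the cut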
MLL AF4-AF9 inh: blocks AF4 peptide binding to human AF9. inhibition, % at 10 µM. P42568. AlphaScreen, biotin-AF4 peptide binding to FLAG-AF9. hit rate 0.47% among 350,000;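 active means every replicate reaching a set inhibition limit, whatever the replicate mean, cut at about 25% in these data; inconclusive means mean inhibition reaches that limit but some replicates miss it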;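 further: 0% = plate neutral control median and 100% = total signal loss; the record names both 10 and 1 µM as test concentration; the first replicate is given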
Target sequence (P42568 whole entry, looked up): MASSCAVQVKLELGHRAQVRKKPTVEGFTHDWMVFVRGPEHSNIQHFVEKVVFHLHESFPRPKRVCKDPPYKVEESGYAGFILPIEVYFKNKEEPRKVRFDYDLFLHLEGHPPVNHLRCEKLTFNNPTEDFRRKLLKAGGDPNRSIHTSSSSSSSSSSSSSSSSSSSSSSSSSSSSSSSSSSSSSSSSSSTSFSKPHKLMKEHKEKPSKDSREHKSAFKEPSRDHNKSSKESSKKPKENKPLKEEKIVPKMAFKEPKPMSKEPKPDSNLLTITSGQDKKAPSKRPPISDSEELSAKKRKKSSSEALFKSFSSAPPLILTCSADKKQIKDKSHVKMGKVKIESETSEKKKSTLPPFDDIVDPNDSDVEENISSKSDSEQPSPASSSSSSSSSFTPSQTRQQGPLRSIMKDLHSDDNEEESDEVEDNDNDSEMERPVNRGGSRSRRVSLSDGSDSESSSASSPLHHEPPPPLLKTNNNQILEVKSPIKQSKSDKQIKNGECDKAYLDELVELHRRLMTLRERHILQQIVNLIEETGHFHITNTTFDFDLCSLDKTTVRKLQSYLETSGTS
Ecoli rRNA inh OD600: second read-out of Ecoli rRNA inh, no call of its own (marks repeat the call); OD600 change, %; measured here: OD600 growth;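 optical density of the mix in the first replicate; 0 = DMSO median and -100 = no signal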
Ecoli rRNA inh RFP: second read-out of Ecoli rRNA inh, no call of its own (marks repeat the call); RFP signal change, %; measured here: RFP humanized mutant strains;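 first replicate; 0 = DMSO median and -100 = no signal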
Starred values were filed as active, the others as inactive; i = inactive; u = inconclusive; x = not tested or not shown.

The line under a structure holds: T cruzi inh	Beta cell apopt	Ecoli rRNA inh	Ecoli rRNA inh OD600	Ecoli rRNA inh RFP	E coli growth	UCH37 DUB inh	FGF22 binding	A1 inh	MLL AF4-AF9 inh
CN(CC(=O)Nc1cccc(S(=O)(=O)N2CCCC2)c1)CC(=O)Nc1ccc(Cl)c(C(F)(F)F)c1
 : 6	-1	-28	-59	21	0.7	-0.1	i	-0.9	-5.6
COc1ccccc1C(=O)NC(=O)COC(=O)c1ccc(Cl)nc1
 : -2	0	7	10	-3.8	0.66	1.1	i	0.9	4.6
CCOc1ccc(NC(=O)N(CCC(C)C)C(C)c2ccco2)cc1 (centres undefined)
 : -4	5	x	x	x	x	-0.8	x	-0.5	x
O=C(CSc1nnc(Cc2cccs2)n1C1CCCCC1)N1CCN(C(=O)c2ccco2)CC1
 : -11	6	x	x	x	0.74	1.5	x	0.6	x
CC12CCC(C(=O)N3CCCc4ccccc43)(OC1=O)C2(C)C (centres undefined)
 : -14	-5	x	x	x	0.62	0.8	i	-0.8	0.0
c1ccc(OCc2nnc(-c3ccccc3)o2)cc1
 : 8	1	-2	-11	-3.2	0.7	5.4	i	-0.6	-3.0
COc1cc2c(cc1OC)C(c1cccc(OC)c1OC)CC(=O)N2 (centres undefined)
 : -4	3	x	x	x	0.75	2.8	x	-0.5	x
C=CCOC(=O)C1=C(C)NC(=O)NC1c1ccc(OC(=O)c2ccco2)c(OC)c1 (centres undefined)
 : -10	-2	x	x	x	0.72	-3.6	x	0.4	x
CSc1nnc(-c2ccccc2)n1C
 : -16	1	x	x	x	0.61	1.8	x	0.7	x
O=C(CNCc1ccc(F)cc1)Nc1ccc(C(=O)N2CCCCC2)cc1
 : 3	-5	0	2	0.8	x	x	i	0.4	-0.9
C=CCn1c(=S)[nH]c2sccc2c1=O
 : 8	2	-12	-18	-2.2	0.64	3.3	i	1.6	-3.0
COc1cc2c(cc1OC)C(=S)NC(C)(C)C2
 : -20	-5	21	13	2.8	0.7	-3.5	i	-0.3	-24
O=C(O)c1ccc(Sc2nnc(-c3cccc(Br)c3)o2)c([N+](=O)[O-])c1
 : 7	-8	x	x	x	0.7	6.2	x	-0.1	x
Cc1ccccc1Nc1nc(N)nc(COC(=O)c2cccc(S(=O)(=O)N(C)C)c2)n1
 : -6	-5	-17*	-2.6*	6.3*	0.69	2.2	i	0.8	-77
CS(=O)(=O)Nc1nnc(CCc2ccccc2)s1
 : -4	-7	-5	-4	-3.6	0.73	1.8	i	-1.3	0.8
Cc1cc2[nH]c(=O)c(=O)[nH]c2cc1S(=O)(=O)Nc1cccc(F)c1
 : -1	-1	8	13	-1.1	0.69	6.4	i	1.5	2.5
CC(C)Sc1nnc(SCC(=O)NCCCN2CCCC2=O)s1
 : x	0	5	1	-3.3	0.64	2.4	i	0.3	1.0
CCn1nc(C(=O)OCC(=O)c2cc(C)n(Cc3cccs3)c2C)c2ccccc2c1=O
 : -2	-8	x	x	x	0.74	5.4	x	-0.7	x
Cc1cc(C)n(CCNC(=O)CC2C(=O)NCCN2Cc2ccc(C)o2)n1 (centres undefined)
 : -21	-8	-5	-3	-2.2	0.7	1.4	i	0.0	2.3
O=S(=O)(O)c1cccc2c(N=Nc3ccc(O)c4ncccc34)cccc12
 : -5	1	-1	-10	-10	0.68	36*	x	-7.0	x
Cc1ccc(C(=O)N2CCN(Cc3ccc4c(c3)OCO4)CC2)cc1[N+](=O)[O-]
 : 4	-5	-2	3	-1.7	0.69	-0.5	i	-0.4	2.9
CNC(=S)N1CCC(NC(=O)c2ccco2)CC1
 : -13	-2	x	x	x	0.69	4.5	x	0.2	x
COc1ccccc1NC(=O)C1=C(C)Nc2nnnn2C1c1ccccn1 (centres undefined)
 : 8	-7	x	x	x	0.68	0.2	x	0.7	x
COc1ccc2cc(S(=O)(=O)NCc3cccnc3)ccc2c1
 : 2	11	-2	5	-0.9	0.69	2.0	i	1.3	-2.4
C=CCNc1sc(C(=O)c2ccc(C)cc2)c(N)c1C#N
 : -5	-2	x	x	x	0.79	-1.1	x	-1.8	x
CCCOc1ccc(-c2nc(OC)c3ccccc3n2)cc1
 : -8	6	x	x	x	0.71	2.2	x	-0.3	x
COc1ccc(OC)c2sc(NC(=O)c3ccc(Br)s3)nc12
 : -12	68	-2	9	-0.9	0.72	3.2	i	-0.5	4.9
N#CCC(=O)N/N=C/c1cc(Br)ccc1OCc1cccc2ccccc12
 : 11	11	1	-5	1.4	x	x	i	1.2	-7.0
Cn1nc([N+](=O)[O-])nc1Sc1nnnn1-c1cccc(C(=O)O)c1
 : -7	-4	9	4	-3.1	0.71	3.3	i	0.4	1.8
O=C(Nc1cccnc1)c1ccco1
 : -2	-17	x	x	x	0.65	2.4	x	2.5	x
O=C1CN(C(=O)COC(=O)CCc2ccccc2)c2ccccc2N1
 : x	-3	1	4	4.2	0.63	-0.4	i	1.1	2.5
COc1cc(NC(=O)c2ccc(COc3ccccc3Br)o2)cc(OC)c1OC
 : 17	x	x	x	x	0.67	3.0	x	-0.4	x
Cc1ccc2nc(SCC(=O)NC(=O)NCc3ccco3)[nH]c2c1
 : 9	-4	x	x	x	0.68	3.1	x	1.5	x
O=C1CSC(c2ccccc2Cl)N1 (centres undefined)
 : -14	-5	18	17	-0.6	0.67	4.5	i	-0.4	-1.6
CN1CCN(C(=O)CSc2nc(-c3ccco3)cc(C(F)(F)F)n2)CC1
 : 11	3	7	6	0.4	0.69	5.0	i	-0.4	-1.7
COc1ccc(OCCCCn2c(CO)nc3ccccc32)cc1
 : 4	13	-34	-30	-3.7	0.67	2.3	i	-0.4	-0.5
CCOc1ccc(N/C(C)=C\C(=O)c2ccc3c(c2)OCCO3)cc1
 : 37	0	-10	-6	-0.7	0.7	1.5	i	0.1	5.5
CCOC(=O)c1nc(Nc2cccc(C)c2)c2ccccc2n1
 : 10	8	-25	-25	-2.0	0.71	1.6	i	0.9	0.2
O=c1[nH]c2ccccc2s1
 : -1	-2	1	4	14	0.71	0.6	i	-0.3	-1.9
CC(Sc1nnc(CN2CCCC2)n1Cc1ccccc1)C(=O)Nc1ccc(F)c(F)c1F (centres undefined)
 : x	x	-9	-8	2.6	0.64	3.2	i	x	0.5
COc1cc(/C=N/OCC(=O)NC23CC4CC(CC(C4)C2)C3)ccc1OCc1ccccc1
 : 20	8	10	3	2.6	x	x	i	-2.7	7.2
C=C1CC[C@@H]2[C@](C)(CO)[C@H](O)CC[C@@]2(C)[C@@H]1/C=C/C1=CCOC1=O
 : -2	-1	-23*	-12*	5.2*	0.66	3.9	i	-0.1	0.1
Cc1cc(C)n(C(=O)CCN2C(=O)c3ccccc3C2=O)n1
 : -18	x	x	x	x	0.71	3.0	x	-0.2	x
O=C(CCS(=O)(=O)c1ccc(Br)s1)NCc1ccc2c(c1)OCO2
 : -4	-8	-6	-20	-10	0.63	1.5	i	-0.4	-22
COCc1ccc(-c2c(-c3cc(OC)cc(OC)c3)oc(=O)c3cc(OC)c(OC)cc23)cc1
 : x	-3	11	16	10	0.72	2.5	i	1.8	x
COc1ccnc(-n2cccc2C#N)c1C#N
 : -12	-2	10	-1	-1.4	0.66	0.4	x	0.4	-2.0
Cc1ccc(NC(=O)c2oc3ccccc3c2C)nc1
 : 4	-1	11	2	0.5	0.74	1.0	i	0.2	-2.6
COC(=O)c1cc(Br)c(=O)n(CCN2CCOCC2)c1
 : -13	-6	x	x	x	0.68	-0.2	x	-0.3	x
COc1ccc(OC)c(/C=C2\SC(N3CCCCC3)=NC2=O)c1
 : 0	-11	-18	-34	-8.0	0.67	-7.4	i	0.7	0.6
O=C(Nc1ccccn1)c1ccc(S(=O)(=O)N2CCCCC2)cc1
 : -10	x	-3	-1	1.0	0.67	3.9	i	-0.5	-0.6
O=C(Nc1c(-c2ccccc2)nc2ccccn12)c1ccccc1F
 : -7	2	-1	-12	-1.4	0.67	4.8	i	1.0	-8.5
CCCCC(=O)NC1(C(F)(F)F)C(=O)N(CC(C)C)C2=C1C(=O)CC(C)(C)C2 (centres undefined)
 : 18	x	x	x	x	0.67	1.9	x	0.3	x
Cc1ccc(C(C(=O)NC(C)(C)C)N(Cc2ccco2)C(=O)CCC(=O)Nc2ccccn2)cc1 (centres undefined)
 : 15	-1	7	8	1.2	0.63	0.0	i	-0.4	0.1
CC(=O)N1[C@H](C)C=C[C@]1(Cc1ccccc1)C(=O)NCCN1CCOCC1
 : 2	-6	5	9	-3.4	x	3.1	i	0.6	0.4
COc1cccc(N=Nc2c(=O)[nH]n3c(C)cc(C)nc23)c1
 : -12	-1	x	x	x	0.64	8.2	x	u	x
CCn1cc(C(=O)N2CCCc3ccccc32)c2cc(OC)c(OC)cc2c1=O
 : -3	3	x	x	x	0.7	7.8	x	0.1	x
CCOc1ccc(S(=O)(=O)NC(Cc2c[nH]c3ccccc23)C(=O)O)cc1 (centres undefined)
 : -14	-1	-3	0	-1.2	0.65	-1.9	i	0.8	1.8
O=C1C=CC(=O)N1Nc1ccc(Br)cc1
 : -4	-9	1	9	1.3	x	x	i	-1.0	-21
Fc1ccc2nc(-c3ccccc3)nc(SCc3nnc(-c4ccccc4)o3)c2c1
 : 19	-3	x	x	x	0.66	-9.9	x	0.5	x

Some of the compounds tested; count on the stated rates, not on these rows.
